Vif A3G: HIV-1 Vif–A3G interaction blockers – biochemical, TR-FRET, GST-Vif 1-94, biotin-A3G peptide, dose response retest, primary screen (AID 1117319); TR-FRET GST-Vif / biotin-A3G peptide binding; higher % means a stronger effect; test concentration not given here; strong numbers were not always called active; inhibition, %, or IC50 in µM where a hit was titrated; 260,000 tested, 0.57% active;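 active = above the screen mean plus three standard deviations and confirmed in dose response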;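 note: Vif residues 1-94 fused to GST binding biotinylated APOBEC3G peptide 110-148; 0% = full assay without inhibitor and 100% = GST in place of GST-Vif; retest series ran down from 100 µM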
HNF4A DNA FP: change in binding of human HNF4 alpha to DNA. activity change, % at 10 µM. AID 1224865. P41235. 360,000 tested, 0.3% active. HNF4a-FITC DNA binding, fluorescence polarization, 1 h; in the data active = activity change above about 30%, passing the limit was not always enough;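 note: controls were the assay level and a saturating level of protein; the project sought stronger binding though the title names inhibitors; some compounds called inactive have numbers as strong as hits; positive values seem to mean higher polarization but the record does not say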
MLL AF4-AF9 inh: MLL-AF4/AF9 protein interaction inhibition. 350,000 tested, 0.47% active. inhibition, % at 10 µM. P42568. AlphaScreen, biotin-AF4 peptide binding to FLAG-AF9. AID 651704;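 active = every replicate reaching a set inhibition limit, whatever the replicate mean, cut at about 25% in these data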;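 note: 0% = plate neutral control median and 100% = total signal loss; the record names both 10 and 1 µM as test concentration; the first replicate is given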
Target sequence (P42568 whole entry, looked up): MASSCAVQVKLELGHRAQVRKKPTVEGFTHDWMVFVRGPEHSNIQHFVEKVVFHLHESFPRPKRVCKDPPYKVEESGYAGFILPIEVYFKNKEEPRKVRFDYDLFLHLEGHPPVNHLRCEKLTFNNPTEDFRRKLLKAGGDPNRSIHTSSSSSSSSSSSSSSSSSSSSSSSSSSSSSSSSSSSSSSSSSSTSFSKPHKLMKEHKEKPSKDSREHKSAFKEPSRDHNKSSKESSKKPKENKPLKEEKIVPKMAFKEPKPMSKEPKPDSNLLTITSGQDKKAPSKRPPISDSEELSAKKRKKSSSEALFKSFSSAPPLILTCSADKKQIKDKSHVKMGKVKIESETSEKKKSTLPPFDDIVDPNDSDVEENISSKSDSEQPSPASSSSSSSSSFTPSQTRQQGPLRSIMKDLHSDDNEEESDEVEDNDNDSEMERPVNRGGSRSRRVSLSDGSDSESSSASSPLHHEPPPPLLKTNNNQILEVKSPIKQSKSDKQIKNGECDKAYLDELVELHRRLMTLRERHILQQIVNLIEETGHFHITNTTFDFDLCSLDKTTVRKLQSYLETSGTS
FGF22 binding: shifts melting point of recombinant human FGF22; Q9HCT0; AID 651658; 340,000 tested, 1.5% active; calls only at 9.99 µM; recombinant FGF22 thermal shift, SYPRO orange fluorescence; percent of sucrose octasulfate shift, DMSO zero;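 active = melting point raised past a set limit in the mean and every replicate; three in four hits are not shown here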
Target sequence (Q9HCT0 whole entry, looked up): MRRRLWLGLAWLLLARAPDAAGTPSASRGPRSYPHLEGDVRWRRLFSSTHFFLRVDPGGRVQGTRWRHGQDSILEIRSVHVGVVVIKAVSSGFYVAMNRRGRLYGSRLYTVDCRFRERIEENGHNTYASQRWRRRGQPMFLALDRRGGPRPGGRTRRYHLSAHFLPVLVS
ALR inh: human ALR oxidase inhibition via reduced H2O2 | purified ALR, DTT oxidation, H2O2 HRP-luminol luminescence | inhibition, % (test concentration not listed) | 290,000 tested, 3.8% active;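 active = mean and each replicate at 75% or more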;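 note: stock transfer was 7.5 nL into about 7.5 µL; 0% = neutral wells and 100% = wells with inactivated enzyme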
Target sequence (P55789 whole entry, looked up): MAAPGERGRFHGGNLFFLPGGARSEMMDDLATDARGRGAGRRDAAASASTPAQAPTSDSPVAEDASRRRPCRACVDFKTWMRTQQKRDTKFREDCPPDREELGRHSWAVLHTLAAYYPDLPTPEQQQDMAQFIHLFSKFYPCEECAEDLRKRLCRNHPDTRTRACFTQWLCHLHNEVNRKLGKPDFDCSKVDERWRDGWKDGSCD
rRNA inh HTS: inhibits bacterial ribosomal RNA function over humanized ribosomes; E. coli WT GFP vs humanized-ribosome RFP mutants, fluorescence, 24 h; hits give low values; DMSO median 0, no signal -100; GFP signal change (wild-type ribosome), % (no concentration beside the values); 350,000 tested, 1.6% active;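 active = significant combined selectivity score with lowered wild-type GFP, culture density cut under 30%, mutant RFP and density less affected; inactive = any of these conditions unmet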; note: one replicate is shown; some compounds called inactive have numbers as strong as hits
E coli growth: E. coli growth inhibition; Escherichia coli growth, OD600, 23 h; hits give low values; 330,000 tested, 0.21% active; OD600 absorbance (no concentration beside the values); AID 1053175;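 active = OD600 absorbance below the run mean of sample wells minus 3.6 SD, in any replicate, cut at about 0.56 in these data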;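 note: stock transfer was 300 nL into about 60 µL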
rRNA inh HTS OD600: also measured in rRNA inh HTS; calls as there; OD600 change, %; measured here: OD600 growth;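 optical density of the mix in the first replicate; 0 = DMSO median and -100 = no signal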
rRNA inh HTS RFP: recorded beside rRNA inh HTS, whose call it bears; RFP signal change, %; measured here: RFP humanized mutant strains;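 first replicate; 0 = DMSO median and -100 = no signal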
The depositor's hits bear a star; i = inactive; . = no result given. Not all compounds are listed, so the mix of outcomes need not match the whole.

SMILES	Vif A3G	HNF4A DNA FP	MLL AF4-AF9 inh	FGF22 binding	ALR inh	rRNA inh HTS	rRNA inh HTS OD600	rRNA inh HTS RFP	E coli growth
Cc1ccc(S(=O)(=O)N2CCOCC2)cc1C(=O)O	-1.4%	1.6	.	.	8.2	.	.	.	0.719
Cc1ccc(-n2c(N)c(C(=O)N3CCOCC3)sc2=S)cc1	5.9%	4.6	.	.	-4.4	.	.	.	0.671
O=C(O)CNC(=O)C1CCCN1C(=O)CNC(=O)OCc1ccccc1 (centres undefined)	3.4%	0.5	-1.3	i	-0.3	10.7	13.6	-5.2	0.681
O=C(c1ccccn1)N(CC1CCCO1)C1(C(=O)NC2CCCCC2)CCCCC1 (centres undefined)	16.7%	-3.5	.	.	2.9	.	.	.	0.684
COc1ccc(C(C)(C)C)cc1NC(=O)COC(=O)C(C)C	-5.9%	4.4	1.3	i	-7.0	-5.6	6.5	-0.8	0.703
O=C(C[C@@H]1CC[C@@H]2NC[C@@H](O)COC[C@H]2O1)Nc1ccc(-c2ccccc2)cc1	.	.	-6.5	i	.	0.0	-3.6	1.3	.
COc1ccc(S(=O)(=O)CCc2nc3ccccc3s2)cc1	15.4%	-0.3	.	.	-4.0	.	.	.	0.666
CCc1c(C)[nH]c2c1C(=O)C(CN1CCOCC1)CC2 (centres undefined)	.	2.2	-4.4	i	-4.5	-0.7	9.1	0.6	0.699
COc1nc(OC)nc(N2CCC(C(=O)NCc3ccc(F)cc3)CC2)n1	1.7%	2.6	.	.	-12.2	.	.	.	0.718
N#CC1(NC(=O)COC(=O)c2ccccc2[N+](=O)[O-])CCCCC1	-0.6%	-1.9	-0.8	.	-12.1	5.2	14.1	-2.9	0.674
CCN(CC)CCN(C)C(=O)CCc1nnc(-c2ccc(C)s2)o1	-4.6%	0.0	-1.3	i	-7.0	25.0	5.4	0.9	0.635
O=C(O)CC1(CC(=O)Nc2ccc3sccc3c2)CCCCC1	-0.4%	7.1	2.9	i	-3.5	-25.6*	-14.2*	-0.9*	0.7
COc1cccc(OCCCN2CCCCC2)c1	10.9%	-0.9	.	.	.	.	.	.	0.699
Cc1noc(C)c1NC(=O)Nc1cccc2c1O[C@@H](CN(C)C(=O)Nc1ccccc1)[C@H](C)CN([C@H](C)CO)C2=O	.	.	0.6	i	.	0.9	3.6	0.6	.
O=C(NCCN1CCCCC1)Nc1ccc(Br)cc1	-4.2%	0.9	-0.4	i	-3.0	-32.5*	-25.8*	-3.6*	0.605
CC(C)c1ccc(NC(=O)COc2ccc(S(=O)(=O)N3CCOCC3)cc2)cc1	10.7%	-2.8	.	.	-6.2	.	.	.	0.703
Cc1ccc(C(=O)OCc2ccc3c(c2)OCO3)cc1S(=O)(=O)N1CCCCC1	-3.9%	-6.2	.	.	1.3	.	.	.	0.698
Cc1c(N)ccc(-n2nc3ccccc3n2)c1C	.	-2.6	0.1	i	-1.5	5.2	-1.6	4.0	0.664
C[C@H](O)C#Cc1ccc2c(c1)O[C@@H](CN(C)Cc1ccc(-c3ccccc3)cc1)[C@@H](C)CN([C@H](C)CO)S2(=O)=O	.	.	3.1	i	.	0.2	-12.1	10.8	.
O=C(COC(=O)[C@@H]1CCCN1S(=O)(=O)c1ccccc1F)c1ccccc1	.	-3.9	3.3	i	-4.6	-15.7*	3.6*	3.3*	0.731
CSc1nnc(-c2sccc2OCc2ccc(C)cc2)n1C	-2.3%	3.8	.	.	-1.5	.	.	.	0.72
CC(NC(=O)c1ccncc1)c1ccc(Cl)cc1Cl (centres undefined)	-0.3%	4.5	0.5	i	-7.9	-33.2*	-6.0*	-5.3*	0.704
NC(=O)CC(NC(=O)c1ccc(Br)cc1)c1ccc(NCCc2ccc(F)cc2)c([N+](=O)[O-])c1 (centres undefined)	-6.2%	6.2	0.3	i	-0.9	5.1	3.1	-5.5	0.691
CC(C)COc1cccc(C(=O)N(CC(=O)Nc2ccccc2C(F)(F)F)Cc2ccco2)c1	-2.5%	0.1	4.2	i	-3.3	-2.7	-22.4	0.7	0.677
Cc1onc(-c2c(Cl)cccc2Cl)c1C(=O)N1CCOCC1	7.3%	-1.9	3.0	i	-3.6	3.2	3.5	-1.3	0.655
CO[C@@H]1CN(C)C(=O)c2cc(NS(=O)(=O)c3cn(C)cn3)ccc2OC[C@@H](C)N(Cc2cccc(C(F)(F)F)c2)C[C@H]1C	.	.	2.3	i	.	-9.2	-15.9	-0.8	.
c1ccc(Oc2ncnc3oc(-c4ccccc4)cc23)cc1	6.0%	5.6	.	.	.	.	.	.	0.811
CCN(C(=O)CSc1nncn1-c1ccccc1)C1CCS(=O)(=O)C1 (centres undefined)	-7.4%	3.6	-19.7	i	.	10.2	10.8	-1.1	0.627
O=C(c1ccc(S(=O)(=O)N2CCOCC2)cc1)N1CCCc2ccccc21	-1.6%	0.6	.	.	-1.3	.	.	.	0.685
COc1ccc(-c2nc(-c3cccc(C(F)(F)F)c3)no2)cc1OC	-29.6%	0.2	.	.	6.2	.	.	.	0.687
O=C(COC(=O)/C=C/c1ccco1)NC1CCCCC1	6.7%	-2.8	1.7	i	1.0	12.7	14.3	1.3	0.695
CC1CCN(C(=O)CSc2nnc(Cn3c(=O)sc4ccccc43)n2C)CC1	22.0%	4.2	0.1	i	47.1	8.2	3.3	0.4	0.689
COc1cc(N)c(Br)cc1C(=O)O	.	5.5	-2.7	i	-10.1	8.6	10.7	-3.3	0.703
COC(=O)COc1ccc(S(=O)(=O)NCC2CCCO2)cc1Cl (centres undefined)	0.6%	5.0	.	.	-41.2	.	.	.	0.691
C[C@@H](O)C#Cc1ccc2c(c1)O[C@@H](CN(C)C(=O)CN(C)C)[C@@H](C)CN([C@@H](C)CO)S2(=O)=O	.	.	-1.1	i	.	1.5	7.5	-2.2	.
CCOc1ccc(CCNC(=O)c2ccc(S(=O)(=O)N3CCCC3)cc2)cc1OCC	-3.1%	2.1	-0.1	i	-7.8	-9.2	-1.4	-2.4	0.696
CSc1ccc(CN(C)CC(=O)Nc2ccccc2C(=O)NC2CC2)cc1	3.5%	3.5	-7.9	i	-0.6	-9.7	-7.8	0.4	0.682
CCOc1cc(N2CCOCC2)c(OCC)cc1NC(=O)COc1cccc(CC)c1	2.1%	-0.7	8.4	i	-16.3	.	.	.	0.658
Cc1nc2c(C)cccn2c(=O)c1NC(=O)c1ccc2c(c1)OCO2	0.9%	1.2	-2.3	i	.	8.6	15.8	-2.1	0.66
COC(=O)c1ccc(CSc2nnc(CNC(=O)COc3ccc(Cl)cc3)o2)o1	30.5%	1.9	.	.	-7.0	.	.	.	0.712

Complete entries, looked up by structure. Values in the order: Vif A3G | HNF4A DNA FP | MLL AF4-AF9 inh | FGF22 binding | ALR inh | rRNA inh HTS | rRNA inh HTS OD600 | rRNA inh HTS RFP | E coli growth
Shown for `COc1ccc(-c2nc(-c3cccc(C(F)(F)F)c3)no2)cc1OC` : -29.6% | 0.2 | . | . | 6.2 | . | . | . | 0.687
Shown for `O=C(COC(=O)/C=C/c1ccco1)NC1CCCCC1` : 6.7% | -2.8 | 1.7 | i | 1.0 | 12.7 | 14.3 | 1.3 | 0.695

The listing continues.
SMILES	Vif A3G	HNF4A DNA FP	MLL AF4-AF9 inh	FGF22 binding	ALR inh	rRNA inh HTS	rRNA inh HTS OD600	rRNA inh HTS RFP	E coli growth
Cc1cc(C)n2cc(CSCC(=O)O)nc2n1	.	0.5	.	.	-7.0	.	.	.	0.673
Cc1ccc2c(c1)c(C)c(C)n2CC(O)CN1CCOCC1 (centres undefined)	.	9.0	.	.	-21.9	.	.	.	0.676
COC(=O)c1cccc(-n2c(C)cc(/C=C3\SC(=O)NC3=O)c2C)c1	3.1%	-2.8	1.1	i	.	-4.9	-3.6	-0.1	.
c1ccc(COc2ccc3nocc3c2)cc1	.	1.8	2.0	i	.	-1.2	7.2	-0.1	0.664
C[C@H](CO)N1C[C@H](C)[C@H](CN(C)CC2CCCC2)Oc2ncc(Br)cc2C1=O	.	.	0.3	i	.	0.3	2.4	0.0	.
CC(=O)Oc1ccc(-c2cccc(C(=O)Oc3ccccc3)c2)cc1	-1.4%	1.8	.	.	25.9	.	.	.	0.67
CC1CN(C(=S)NC(=O)c2cccc([N+](=O)[O-])c2)CC(C)O1 (centres undefined)	-2.4%	-0.4	.	.	5.7	.	.	.	0.731
O=C(COc1cc2oc(=O)c3c(c2cc1Cl)CCC3)NCC1CCC(C(=O)O)CC1 (centres undefined)	2.5%	0.7	-1.3	i	-2.4	6.9	10.9	6.1	0.663
CC1(C(=O)Oc2ccccc2)Cc2ccccc2C(=O)O1 (centres undefined)	0.4%	-5.4	3.7	i	1.9	4.9	1.9	2.0	0.652
CCN(CC)Cc1nc2c(c(=O)[nH]1)C1(CCCC1)Cc1ccccc1-2	-0.1%	-3.2	.	.	-4.3	.	.	.	0.68
S=c1[nH]nc(Cc2ccccc2)n1Cc1ccco1	-6.0%	2.0	-2.7	i	88.8*	-1.0	7.6	-4.8	0.72
C[C@@H]1CN([C@@H](C)CO)C(=O)CCCn2nncc2CO[C@@H]1CN(C)Cc1ccc(C(=O)O)cc1	.	.	0.6	i	.	-1.0	5.4	0.3	.
Fc1cnc(Cl)nc1N1CCN(c2ccccc2)CC1	20.5%	-1.5	-2.8	i	98.8*	-22.5*	3.2*	2.5*	0.704
CCCCCNC(=O)c1ccc2c(c1)ncn2-c1ccc(OC)cc1	-5.8%	1.1	-23.5	i	-6.8	-39.2	-70.6	-0.6	0.646
COc1ccc(/C=C/CN2CCN(CCc3ccccc3)C(CCO)C2)cc1 (centres undefined)	17.0%	-1.4	2.8	.	-8.5	5.1	0.9	2.6	0.684
CCOc1ccccc1C(=O)Nc1ccc(NC(=O)c2ccccc2)cc1	.	2.8	-3.4	i	-16.5	4.6	8.6	-3.0	0.666
COCCN(Cc1cc2c(C)cc(C)cc2nc1Cl)C(=O)c1ccccc1F	.	3.8	-6.8	.	.	-32.1	-57.6	-4.6	0.701
Nc1cc(Br)cc2c1[nH]c(=O)c1ccccc12	-1.1%	1.8	1.2	.	.	-0.7	-1.0	4.7	.
Cc1ccc(S(=O)(=O)Nc2ccc3c(c2)nc(CCN2CCOCC2)n3C)cc1	8.9%	0.0	-8.2	i	1.0	-1.3	-5.1	4.4	0.725
Cc1cc(N=Nc2c(O)c3ccccc3[nH]c2=O)ccc1N=Nc1ccc(C(=O)N(C)C)cc1	-4.8%	-2.5	-0.1	i	.	4.8	5.3	1.9	.
COc1cccc2[nH]c3c(=O)n(CCN(C)C)cnc3c12	-6.9%	-0.8	.	.	1.7	.	.	.	0.729
COc1ccc(OC)c2nc(-c3cccnc3)ccc12	-0.1%	4.1	-1.4	i	.	-3.4	-1.4	-0.3	0.653
S=c1[nH]nc(C2CCCCC2)n1/N=C/c1cccc(Cl)c1Cl	.	-3.6	-9.4	i	18.0	2.4	6.0	0.6	.
CC1CC(C)CN(C(=S)NC2CCCCC2)C1 (centres undefined)	.	-2.3	-4.7	i	.	7.8	1.9	-5.4	0.703
COCC(=O)N1CC[C@@H]2[C@@H](CO)Nc3ccc(C#Cc4ccccc4)cc3[C@@H]21	.	.	-0.1	i	.	2.4	4.7	-7.7	.
CCNC(=O)COC(=O)CCNC(=O)c1cccc(C)c1	3.8%	0.5	1.3	i	-9.4	21.3	13.3	-1.0	0.678
CCS(=O)(=O)N1CCN(c2cnn(-c3ccccc3)c(=O)c2Cl)CC1	-4.8%	-1.1	0.5	i	-2.6	8.4	10.0	3.0	0.678
O=C(CSc1nnc2ccccn12)NNC(=O)c1ccccc1	4.7%	4.8	-0.7	i	-3.2	14.3	7.4	0.7	0.673
O=C(COc1ccc(Br)cc1)Nc1ccc([N+](=O)[O-])cn1	-1.9%	2.1	.	.	-1.2	.	.	.	0.731
CCC(=O)Nc1cc(C(F)(F)F)ccc1N1CCOCC1	-7.4%	-3.1	.	.	-2.3	.	.	.	0.735
CN(C)S(=O)(=O)c1cc(NC(=O)c2cc(=O)c3ccccc3o2)ccc1Cl	.	-1.1	-3.4	i	-1.3	-10.0	-9.5	4.2	0.635
